Screening data (PubChem BioAssay)
Vaccinia mCherry = qHTS for Stage-Specific Inhibitors of Vaccinia Orthopoxvirus: mCherry Reporter Primary qHTS; Vaccinia virus mCherry reporter infection, fluorescence; about a quarter of the inactives have no number; Potency, µM (titrated, usually from 36.5 µM), inactives show top-dose activity change, negative = inhibition, actives largely listed as inhibitors; 310,000 compounds, 0.63% hits; AID 720579, 2013; active = well fitted inhibition curve with a large enough effect; inconclusive = small, poorly fitted or top-dose-only effect; inactive = no such curve, though single readings can be large or run the other way; tested in A549 cells; also: nearly all actives have a fitted effect of over 35% in size; inactives centre near -10
VACV Venus inh = qHTS for Stage-Specific Inhibitors of Vaccinia Orthopoxvirus: Venus Reporter Primary qHTS. Vaccinia virus Venus reporter expression, fluorescence. Potency, µM (highest dose often 36.5 µM), for inactives: top-dose activity change, negative = inhibition, actives largely listed as inhibitors. 330,000 compounds, 0.46% hits. AID 720580, 2013; active means well fitted inhibition curve with a large enough effect; inconclusive means small, poorly fitted or top-dose-only effect; inactive means no such curve, though single readings can be large or run the other way; tested in A549 cells; also: nearly all actives have a fitted effect of over 30% in size; inactives centre near -10
Starred values were filed as active, the others as inactive; i = inactive; ? = inconclusive; . = no result given; [ ] = remark or other dose. % is scaled to controls: 0 for no effect and ±100 for the full control effect; potency is read from the fitted curve at half-maximal effect. The order is random, and some 0.87% of all compounds hit somewhere here.

structure	Vaccinia mCherry	VACV Venus inh
CC(C)NC(=O)Nc1cccc2c1O[C@H](CN(C)C(=O)NC1CCCCC1)[C@H](C)CN([C@H](C)CO)C2=O	-13.4%	-23.6%
CN(CC(=O)Nc1ccccc1C(F)(F)F)C(=O)c1cccc(-n2cccc2)c1	-14.2%	-11.7%
Cc1ccc(S(=O)(=O)N(C)C[C@H]2Oc3ccc(NC(=O)Nc4c(C)noc4C)cc3CC(=O)N([C@@H](C)CO)C[C@@H]2C)cc1	-2.1%	-4.7%
O=C(c1ccccc1[N+](=O)[O-])N1CCc2ccccc2C1	-13.2%	-17.1%
COc1ccc(NC(=O)CCN2C(=O)c3cccc([N+](=O)[O-])c3C2=O)cc1	-25.0%	-12.6%
Cc1cc(=O)oc(C)c1C(=O)OCC(=O)c1ccc(Cl)cc1	.	7.5%
COCCNc1nc(Oc2ccc(CC(=O)OC)cc2)c2sc(-c3ccccc3)cc2n1	3.0%	-3.5%
Cc1cc(Br)ccc1NC(=O)CCSc1ccccc1	-24.2%	-22.3%
O=C(CCS(=O)(=O)c1ccc(Cl)cc1)Nc1nnc(-c2ccco2)o1	10µM*	?
CS(=O)(=O)N(CC(=O)N1CCOCC1)c1ccccc1	i	-11.0%
Cc1cccc(N2CCN(C(=O)CCc3nc4ccccc4[nH]3)CC2C)c1 (centres undefined)	i	-18.8%
Cc1ccc(S(=O)(=O)N2C[C@H]3N(C(=O)OC(C)C)N(C(=O)OC(C)C)C[C@H](OC(=O)NCc4ccccc4F)[C@@]3(O)C2)cc1	-1.0%	?
Cc1cc(=O)oc2cc(OCc3ccc(C(=O)OCC(=O)NC4CCS(=O)(=O)C4)cc3)ccc12 (centres undefined)	i	4.9%
Cc1ccc(-c2csc(NC(=O)c3ccc([N+](=O)[O-])o3)n2)cc1	?	?
Cc1ccc(S(=O)(=O)N(C)C)cc1NS(=O)(=O)c1ccc(Cl)s1	-8.0%	-15.3%
O=C(/C(C=Nc1ccc(F)cc1)=C(/O)c1ccco1)C(F)(F)F	-22.6%	-6.1%
CCN1CCN(c2ncnc3c2nnn3Cc2ccccc2)CC1	-12.4%	-9.6%
CCOc1ccc(CCNC(=O)C2CC(=O)N(c3ccccc3OCC)C2)cc1OCC (centres undefined)	-13.5%	-6.9%
CCSc1ncc(/C=N/Nc2ccc([N+](=O)[O-])cc2)n1C	.	2.8%
CCc1cccc(N=c2c([N+](=O)[O-])nn(-c3ccc4c(c3)OCCO4)n2O)c1	-25.6%	1.5%
O=C1/C(=C/c2ccccc2)CCc2ccc(Cl)nc21	-19.9%	4.5%
Cc1ccc(C2=NNC(=O)C(P(=O)(c3ccccc3)c3ccccc3)C2)cc1 (centres undefined)	i	-11.5%
CCCCNC(=O)CCCn1c(=O)c2ccccc2n(Cc2cccc(Cl)c2)c1=O	-23.1%	-17.9%
CN(c1ccc(OCC(=O)Nc2nc(-c3ccccc3)cs2)cc1)S(=O)(=O)c1ccc(F)cc1	?	-18.9%
O=C(CN1CCCc2ccccc21)Nc1ccccc1[N+](=O)[O-]	i	-1.0%
CCCC/C=C/[C@H](c1ccccc1)[C@H](CO)Cc1cccnc1	-20.6%	-12.4%
O=C(O)c1cccc(N=Nc2c(O)[nH]c(=O)[nH]c2=O)c1	-10.6%	-10.2%
COc1ccc(N2CCN(C(c3cccs3)C(C)NC(=O)c3ccc4c(c3)OCO4)CC2)cc1 (centres undefined)	-6.6%	-11.9%
CC(C)(C)CC(C)(C)NC(=O)/C=C/C(=O)O	-5.9%	-12.9%
CC(=O)Nc1nc2cc([N+](=O)[O-])ccc2s1	?	-13.8%
O=C(NC(=S)Nc1ccccn1)c1ccco1	-12.8%	-1.1%
COc1ccc(OC)c(NC2=NC3(CCCCC3)N=C(N)N2)c1	-17.8%	-16.6%
O=C(NC1CCCCC1)C(c1ccc2ncccc2c1)N(Cc1ccccc1)C(=O)c1ccc2c(c1)OCCO2 (centres undefined)	i	-1.7%
O=C(CSc1nc2ccccc2c(=O)n1-c1ccccc1)NCc1ccc2c(c1)OCO2	i	-23.2%
CC(C)CNC(=O)Cn1c(=O)c2c(ncn2CC(C)C)n(Cc2ccccc2)c1=O	-0.2%	0.0%
CCc1ccc(NC(=O)Cn2c(=O)n(CCC(=O)NCCc3ccc(Cl)cc3)c(=O)c3ccccc32)cc1	-6.0%	-7.3%
N#Cc1c(-c2ccc(Cl)cc2)nc2n(c1=O)CCCS2	-14.4%	-15.9%
Cc1cccc(NC(=O)Cn2c(=O)n(CCc3ccccc3)c(=O)c3ccccc32)c1	i	-11.5%
CC(C)(C)NC(=O)CN(C(=O)CN1C(=O)C(=O)c2ccccc21)C(C)(C)C	-19.9%	-2.5%
CC(C)[C@H](NC(=O)OCc1ccccc1)C(=O)NC(C=O)Cc1ccccc1 (some centres undefined)	-1.3%	-19.5%
COc1ccc(C(=S)N2CCN(C)CC2)cc1	-5.4%	-3.4%
COc1cccc(/C=C2/SC(=S)N(CC(=O)Nc3nccs3)C2=O)c1	-12.7%	-12.0%
C=CCC[C@H](Cc1ccc(F)cc1)C(=O)OC[C@@H](NC(=O)[C@@H](CC=C)CC(=O)N[C@H](CO)Cc1ccccc1)C(C)(C)C	12.6µM*	11.2µM*
O=C(COC(=O)C1CCN(c2ccc(C(F)(F)F)cn2)CC1)c1ccccc1	1.2%	4.0%
O=C(O)CC(CC(=O)Nc1ccc2ccccc2n1)c1ccccc1 (centres undefined)	-2.8%	-2.2%

Exported with values under each structure: three of the compounds above
Order of values: Vaccinia mCherry | VACV Venus inh
COc1cccc(/C=C2/SC(=S)N(CC(=O)Nc3nccs3)C2=O)c1
 : -12.7% | -12.0%
N#Cc1c(-c2ccc(Cl)cc2)nc2n(c1=O)CCCS2
 : -14.4% | -15.9%
O=C(NC(=S)Nc1ccccn1)c1ccco1
 : -12.8% | -1.1%

Next records:
structure	Vaccinia mCherry	VACV Venus inh
O=C(COC(=O)c1ccc(Cl)c(S(=O)(=O)N2CCCC2)c1)NCc1ccccc1	-19.9%	-13.6%
Cc1ccc(-c2onc3ccc(Cl)cc23)cc1	-14.6%	-5.4%
COC(=O)Cn1cc(C(=O)C(F)(F)F)c2ccccc21	-0.7%	0.2%
COc1cccc(-c2nc(SCc3cc(=O)c4ccc(C)c(C)c4[nH]3)n[nH]2)c1	-6.4%	-12.7%
CC(C)C[C@H]1CNC(=S)N1C[C@H]1CCCN1C[C@H](Cc1ccc(O)cc1)N1C[C@H](Cc2ccccc2)N(CC2CCCCCC2)C1=S	7.4%	-2.8%
CCOC(=O)Nc1cc(N)ncn1	-16.2%	-1.1%
O=C(C1=C[C@@H](c2coc3ccccc3c2=O)C[C@@H](OCCCCO)O1)N1CCN(Cc2ccccc2)CC1	0.4%	-14.1%
CCN(CC)CCCN=Cc1c(O)n(Cc2ccccc2)c(=O)c2ccccc12	.	?
Cc1ccccc1C1c2[nH]c3ccccc3c2CCN1CCCn1cccn1 (centres undefined)	-8.8%	-11.4%
Cc1noc(C(=O)Nc2c(C)n(C)n(-c3ccccc3)c2=O)c1Cl	i	-3.9%
CC(C)C[C@H](NC(=O)[C@H](Cc1ccccc1)n1c(=O)[nH]c2ccccc2c1=O)C(=O)N1CCC(C(=O)O)CC1	-8.6%	-7.5%
COCC(=O)N1C[C@H]2CON(C)[C@H]2C[C@H]1c1cccc(-c2ccccc2OC)c1	i	-5.5%
COC(=O)CC[C@@H](C(=O)O)N1C(=O)c2ccccc2C1=O	-8.0%	-9.0%
CN1CCN(c2ccc(C=O)cc2)CC1	-7.9%	-6.8%
CC(=O)Nc1ccc(NC(=O)COC(=O)Cc2cccs2)cc1	9.7%	2.4%
Cc1nnc(N(C(=O)c2cnccn2)c2ccccc2)s1	-14.7%	-6.2%
COc1ccc(S(=O)(=O)N2CCOC23CCN(S(=O)(=O)c2cccs2)CC3)cc1	-12.7%	-11.3%
Brc1ccc2c(c1)CN1CCCC1=N2	-27.3%	-24.3%
O=C(c1ccc(Br)cc1)N1CCC(C(=O)N2CCN(Cc3ccccc3)CC2)CC1	-4.9%	-17.4%
COc1ccc(-n2nc(C(=O)NCC(=O)N3CCC4(CC3)OCCO4)c3ccccc3c2=O)cc1OC	-6.4%	-8.3%
NC(=O)c1c(NC(=O)Cn2cc([N+](=O)[O-])cn2)sc2c1CCCC2	-20.0%	-2.5%
O=C(NCc1ccccn1)c1ccc2ccccc2n1	11.0%	6.4%
Cc1oc(-c2cccs2)nc1CN1CCN(CC(C)C)C(CCO)C1 (centres undefined)	i	-15.9%
COc1ccc(C(=O)N2CCN(Cc3cc(=O)n4nc(-c5ccccc5C)sc4n3)CC2)cc1OC	-16.7%	-16.9%
O=S1(=O)c2cccc3cccc(c23)N1Cc1nnc(-c2ccccc2Br)o1	?	?
COc1ccc(C2(C)NC(=O)N(CC(=O)Nc3ccc(Br)c(C)c3)C2=O)cc1OC (centres undefined)	i	-25.0%
CCOc1ccc(NC(=O)CN(C)C(=O)C2(c3ccccc3)CC2)cc1OCC	-27.7%	-20.6%
CCCCCC/C(=N\NS(C)(=O)=O)c1ccccc1	i	-19.2%
COc1ccc(S(=O)(=O)Nc2nc3ccccc3nc2NCC2CCCO2)cc1 (centres undefined)	i	1.5%
COC(=O)c1ccccc1NC(=S)NC(=O)C1CC1	-14.4%	-6.1%
O=C(CN1C(=O)C2CCCCC2C1=O)Nc1cccc(C(F)(F)F)c1 (centres undefined)	-13.3%	-8.6%
COc1ccc(C(=O)NCc2nnc(SCC(=O)Nc3cc(C)cc(C)c3)o2)cc1OC	-19.5%	-4.8%
CCn1c(Cc2ccc(OC)cc2)nc2ccccc21	-13.3%	-16.3%
O=C(CN1CCOCC1)Nc1ccc(Br)cc1	-25.2%	-7.4%
CC(C)C1Cc2c(C#N)c(N)sc(=S)c2CO1 (centres undefined)	-25.1%	-3.5%
O=C(CSc1nc2ccc([N+](=O)[O-])cc2s1)NCC1CCCO1 (centres undefined)	i	1.6%
O=C(C[C@H]1CC[C@H](NC(=O)C2CCOCC2)[C@@H](CO)O1)NCc1ccncc1	-6.8%	-7.3%
COC(=O)Cn1ccc2cc(S(=O)(=O)N3CCCCC3)ccc21	1.6%[7.34 µM]	-3.6%[7.34 µM]
O=C(Cc1ccccc1)Nc1cccc(N2C(=O)C=CC2=O)c1	i	-11.0%
Cc1cc(=O)oc2cc(Oc3ccc([N+](=O)[O-])cc3[N+](=O)[O-])ccc12	i	-8.5%
Cc1ccc(-c2cc(C(F)(F)F)n3nc(C(=O)Nc4ccc(C#N)cc4)cc3n2)cc1	3.4%	6.3%
CCc1ccc2[nH]c3nc(N/N=C/c4cccc(O)c4)nnc3c2c1	-30.0%	-21.2%
O=C(c1ccncc1)N1CCN(c2cccc(C(F)(F)F)c2)CC1	.	0.9%
COc1cc(-c2coc3cc(OC)c(OC)c(OC)c3c2=O)cc(OC)c1OC	i	?
COc1cc(-c2nc3ccccn3c2NCc2ccccc2)ccc1SC1CCCCC1	?	?
CCOc1ccc(/C=C/c2nc(C#N)c(NCCCOC)o2)cc1	-15.7%	-25.6%
CC(=O)c1cnc2cc(-c3ccccc3)nn2c1C	3.3%	9.1%
Cc1ccc2nc(NC(=O)CSCC(=O)OCC(=O)c3ccc(Br)cc3)sc2c1	-19.0%	-12.0%
COc1cc(O)c2c(=O)c3c(O[C@H]4O[C@@H](CO)[C@H](O)[C@@H](O)[C@@H]4O)ccc(O)c3oc2c1	-2.5%	-8.9%
CC(=O)Nc1ccc(S(=O)(=O)NNC(=O)CCC(=O)Nc2cc(C)ccc2C)cc1	i	-8.1%
O=C(OCCOCCN=C1NS(=O)(=O)c2ccccc21)C1CC(=O)N(c2ccccc2)C1 (centres undefined)	.	-7.4%
CN(CCO)C(=O)c1cn(C2CCCN(Cc3cc4ccccc4s3)C2)nn1 (centres undefined)	-8.2%	-24.2%
CCOC(=O)c1c(C)oc2cc(Br)c(OCC(N)=O)cc12	-21.1%	-6.0%
Cn1c(NC(=O)Cc2cccs2)cc(=O)n(C)c1=O	-11.3%	-4.2%
CC1CCCCN1CCNC(=O)CC1Oc2ccccc2NC1=O (centres undefined)	3.0%	-6.1%
Cc1ccc(CN(C(=O)COc2ccc(C)c(C)c2)C2CCS(=O)(=O)C2)o1 (centres undefined)	-9.1%	-8.4%
COc1ccccc1-c1ccc([C@@H]2C[C@H]3[C@H](CON3C)CN2C(=O)c2ccco2)cc1	i	-6.5%
COC(=O)NCc1cccc(CNC(=O)OC)c1	.	-2.6%
O=C(CSc1nc(-c2ccco2)cc(C(F)(F)F)n1)NN1CCOCC1	-8.7%	-5.6%
COc1cccc(CNS(=O)(=O)c2ccc(N3CCCCS3(=O)=O)cc2)c1	-25.6%	-22.2%
COCCCNC(=O)C(C#N)c1nc2ccccc2nc1N1CCCC1 (centres undefined)	.	-9.3%
COc1cccc(NC(=O)C2CCCN2C(=O)NC2CCCCC2)c1 (centres undefined)	19.1%	4.8%
